Mtb hypoxia inh: inhibitors of hypoxia-regulated fluorescent reporter in Mycobacterium tuberculosis; M. tuberculosis hypoxia-regulated fluorescent reporter, fluorescence; fluorescence inhibition, % (test concentration not listed); 0.1% of 300,000 active; AID 1159583;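 active means 35 to 45% if threefold the growth effect, above 45% if 1.5-fold the growth effect; inactive means the rest, general growth blockers included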;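 further: wells of about 50 µL received 100 nL stock; 0% = vehicle wells and 100% = reference inhibitor wells; whole bacteria with a GFP reporter of the hypoxia response; strong numbers were not always called active; many hits fall short of the cut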
PrP UTR inh: suppresses PrP 5' UTR mRNA reporter expression | cell-based PrP 5' UTR mRNA reporter, plate reader | inhibition, % (test concentration not listed) | 0.35% of 340,000 active;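 active means every replicate at 50% or more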;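 further: 0 = median of the neutral control wells; tested in H4 reporter cells; numbers are from one replicate; inactives centre near -14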
BJeLR viability: BJeLR cell viability loss; 0.17% of 300,000 active; BJeLR (HRASV12) viability, CellTiter-Glo ATP luminescence, 48 h; reference of the scale not given here; inhibition, % (test concentration not listed);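 active means replicate mean above 50%; inconclusive means above 50% but judged a plate artefact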;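 further: 50 nL library stock added to about 25 µL; numbers are from one replicate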
Sa ugtP lethal: compounds lethal to S. aureus RN4220 ugtP deletion mutant | 0.54% of 330,000 active | AID 1259309 | growth inhibition, % (concentration not given with the values) | OD600 growth, 16 h; some inactives read as strong as hits;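 active means z-score under -3 and OD600 up to 0.15 on both plates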;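 further: plate controls were untreated wells for no effect and antibiotic for full effect; wells of about 80 µL received 100 nL stock; the first replicate is given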
Bead autofluor: compound fluorescence in toxin protease inhibitor counterscreen. 3.1% of 360,000 active. compound autofluorescence counterscreen, microsphere flow cytometry; hits give high values. fluorescence intensity (test concentration not listed);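 active means at least 3 SD above the mean of all compounds, about 16000 in these data; inconclusive means too few beads counted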;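 further: 100 nL of 1 mM stock went into each well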
Sa RN4220 lethal: S. aureus RN4220 growth inhibition. 0.33% of 330,000 active. inhibition, % (no concentration beside the values). OD600, 16 h. AID 1259311;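 active means z-score of -3 or lower and OD600 up to 0.18 on both plates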;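 further: plate controls were untreated cells for no effect and reference antibiotic for full effect; stock transfer was 100 nL into about 80 µL; one replicate is shown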
Mtb hypoxia inh growth: second read-out of Mtb hypoxia inh, no call of its own (marks repeat the call); growth inhibition, %; measured here: M. tuberculosis growth (absorbance);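 0% = vehicle and 100% = reference antibiotic; read after six days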
Starred values were filed as active, the others as inactive; ? = inconclusive; . = no result given.

SMILES	Mtb hypoxia inh	Mtb hypoxia inh growth	PrP UTR inh	BJeLR viability	Sa ugtP lethal	Bead autofluor	Sa RN4220 lethal
O=C(O)C1CCCN1C(=O)Oc1ccccc1 (configuration not stated)	4.1	12.3	-37.2	1.5	-5.6	9205	-0.3
Nc1ccc2nc(-c3cccs3)[nH]c2c1	3.1	5.5	-62.4	-2.5	2.3	10181	1.5
O=C(Cn1cnc(S(=O)(=O)N2CCCC2)c1)Nc1ccccc1	2.9	-0.4	1.2	-2.4	6.3	4477	-0.2
O=C1c2ccccc2C(=O)N1CCCCSc1nnc2c(Cl)cc(Cl)cn12	.	.	-13.3	-0.7	4.8	2175	4.3
CC(C)(C)C(=O)Nc1c2c(nc3c1CCC3)CCCC2	.	.	6.8	-1.7	-2.5	2163	4.4
COc1ccccc1C(=O)Nc1ccc(Oc2ncnc3sc(-c4ccccc4)cc23)cc1	1.6	5.8	-26.6	6.4	6.7	?	2.2
Cc1cccn2c(=O)nc(SCC(=O)N3CCCCC3)nc12	1.9	4.9	-8.9	-10.1	-0.3	?	-0.6
Cc1ccc(NC2CC(=O)N(c3ccc(C)cc3)C2=O)cc1 (configuration not stated)	9.2	11.0	-20.4	8.5	3.5	2809	0.9
CCOCc1c(C(=O)OCC(=O)Nc2ccc(C)c(S(=O)(=O)N(C)C)c2)oc2ccccc12	4.2	7.0	-16.7	-11.3	6.5	2389	4.1
CCOCCCNS(=O)(=O)c1ccc2c(c1)OCCO2	4.2	2.5	0.1	11.9	-3.3	4650	4.5
CCN1C(=O)/C(=C\c2ccncc2)SC1=S	-1.0	-1.7	0.2	16.7	-2.8	4631	6.6
c1ccc2c(CN3CCOCC3)c[nH]c2c1	1.7	16.9	-0.8	2.2	3.0	4268	-1.7
COc1ccccc1Cc1noc(-c2cc(Cl)ccc2OC)n1	10.1	8.3	-5.3	-9.2	31.4	10739	2.4
COc1cc(SC)ccc1C(=O)OC(C)C(=O)NC1CCCC1 (configuration not stated)	11.9	7.8	-2.2	.	-0.7	2566	1.1
CCOC(=O)c1cccc(NC(=O)CN2CCN(c3ccc(OC)cc3)CC2)c1	13.4	-0.9	-2.2	-1.2	-3.6	?	2.6
O=C(CN(C(=O)c1ccccc1)N1C(=O)CCC1=O)c1cccs1	5.4	4.9	-24.1	0.4	2.8	5531	-1.4
COc1ccc(S(=O)(=O)N2CCCCC2)cc1NC(=O)CCNC(=O)c1ccco1	-11.5	-2.5	-4.7	.	3.1	6423	2.0
O=c1n(S(=O)(=O)c2cccc3cccnc23)c2ccccc2n1S(=O)(=O)c1cccc2cccnc12	-2.1	9.6	1.0	3.6	-23.6	20693*	11.8
COc1cccc(C=Nn2c(-c3n[nH]c4c3CCC4)n[nH]c2=S)c1OC	8.2	7.5	.	.	2.1	.	4.7
COc1ccc(C2NCCc3cc(OC)c(OC)cc32)cc1OC (configuration not stated)	2.9	5.1	-10.2	-7.0	-0.4	9217	3.6
Cc1cc(NC(=O)CSC2=NS(=O)(=O)c3cc(Cl)ccc3N2)no1	-14.8	4.4	-17.4	5.2	25.2	5810	1.9
Cc1ccc(C(C)C)c(OCC(=O)NN=Cc2cccn2C)c1	2.9	-3.6	.	.	-15.8	.	18.2
O=C(NC(=S)N1CCN(C/C=C/c2ccccc2)CC1)c1cccnc1	-7.7	-4.1	-0.8	4.8	8.0	3149	-0.2
Cc1cccn2cc(CCNC(=O)c3cccs3)nc12	-14.6	8.0	-20.6	-11.2	3.3	4128	5.5
CCOC(=O)c1c(-c2cccs2)csc1NC(=O)CC(C)C	.	.	-21.9	22.4	21.9	4044	-6.9
More records follow.
SMILES	Mtb hypoxia inh	Mtb hypoxia inh growth	PrP UTR inh	BJeLR viability	Sa ugtP lethal	Bead autofluor	Sa RN4220 lethal
CCC(=O)c1cn(CC(=O)O)c2ccccc12	-0.1	-1.5	-21.8	2.5	0.6	3380	3.6
COc1cc2nc(N3CCNCC3)nc(N)c2cc1OC	8.6	0.9	-21.4	2.8	9.7	17344*	7.8
Cc1ccc(C(=O)Nc2oc(-c3ccccc3)cc2C#N)cc1	.	.	-11.1	8.1	-0.2	2737	-0.5
O=c1onc(-c2ccccc2)n1-c1cc(Cl)cc(Cl)c1	3.9	0.2	.	3.7	8.5	4109	3.6
Cc1ccc2c(c1)N(CC(=O)O)C(=O)CO2	0.2	7.9	1.6	0.6	2.5	11337	0.3
CCC(C)C1NC(=O)c2cc([N+](=O)[O-])cc(F)c2NCCCCC(C(N)=O)NC(=O)C(CC(N)=O)NC1=O (configuration not stated)	5.6	10.3	.	.	-11.2	.	1.7
Oc1cc2c(cc1C(c1ccc(Cl)c(Cl)c1)N1CCCC1)OCO2 (configuration not stated)	3.6	3.2	-14.8	2.9	87.2*	2255	41.3
O=C(O)c1ccc(OC2CSC2)cc1	-4.0	0.0	-11.2	3.6	4.8	2825	6.4
O=C(NCC1CCCO1)c1cc2ccccc2cc1O (configuration not stated)	-2.5	15.2	-56.0	1.5	-4.7	5556	-2.4
O=c1c2ccccc2n2c(-c3cccc(Cl)c3)nnc2n1Cc1ccccc1	14.6	4.3	8.3	-6.3	-5.9	2406	2.0
COc1cc(NC(=O)CSc2nnnn2-c2ccccc2)cc(OC)c1OC	4.2	8.9	-13.9	3.3	-12.0	2936	-8.7
Oc1cccc(C2c3[nH]c4ccccc4c3CCN2Cc2ccc3c(c2)CCO3)c1 (configuration not stated)	-2.9	8.9	-13.2	3.9	-16.6	3676	0.6
CCN(CC(=O)NCC1CCCO1)S(=O)(=O)c1ccc2ccccc2c1 (configuration not stated)	13.3	-1.5	-4.2	2.8	12.4	4264	2.8
COc1c(S(=O)(=O)N2CCN(C(=O)c3ccco3)CC2)ccc(Cl)c1Cl	-9.3	5.5	-60.9	7.0	-1.5	4084	1.1
Cc1ccc(/C(O)=C2\C(=O)C(=O)N(c3cc(C)on3)C2c2cccc(Cl)c2)cc1 (configuration not stated)	9.8	10.8	-22.5	-2.1	13.7	2844	-9.9
N#CC1=C2SCN(Cc3ccco3)CN2C(=O)CC1c1cccc2ccccc12 (configuration not stated)	2.3	-0.3	-24.3	2.8	3.8	5499	0.5
COc1ccc(Cl)cc1NC(=S)NCCc1ccc(S(N)(=O)=O)cc1	2.9	16.0	-28.8	9.0	-2.0	3688	-0.6
CCOC(=O)COc1c(Br)cc(/C=C2\SC(=O)N(CC(=O)N3CCCC3)C2=O)cc1OC	2.4	-7.4	-8.1	-13.1	6.5	9531	-0.7
Cc1nn(C(=O)CCC(=O)NCCc2ccccc2)c2ccccc12	6.7	4.8	-3.2	-5.7	8.9	4994	4.7
CC(Nc1cc(C)cc(C)c1)=[N+](C)CCNS(=O)(=O)c1ccc(Cl)cc1	4.1	-0.5	-4.6	-5.6	-0.1	4661	0.0
Cc1ccccc1-n1c(SCc2c(C)noc2C)nnc1-c1cccnc1	-1.2	11.8	-35.5	15.4	-9.4	9980	-12.1
Cc1c(C(=O)OCC(=O)NCC2CCCO2)cccc1[N+](=O)[O-] (configuration not stated)	-14.2	-11.1	-21.5	-1.7	-0.4	3529	1.8
COc1ccccc1NC(=O)CCc1nnc2ccc(N3CCCCC3)nn12	6.3	16.9	-9.2	-4.2	1.9	5343	2.4
CCCN(CC(=O)Nc1ccccc1C)C(=O)CCCOc1ccc(Br)cc1	8.5	-1.3	.	.	-6.9	5570	0.4
Cc1ccc(-n2[nH]c(C)c(/C=N/c3cccc(C)n3)c2=O)cc1	.	.	-7.1	16.6	.	5542	.
(list continues)
SMILES	Mtb hypoxia inh	Mtb hypoxia inh growth	PrP UTR inh	BJeLR viability	Sa ugtP lethal	Bead autofluor	Sa RN4220 lethal
O=C(CCCC(=O)NC1CCCCC1)Nc1ccc([N+](=O)[O-])cc1	2.0	6.0	-16.0	-5.3	10.3	3256	1.7
O=C(Nc1nc(-c2ccccc2)cs1)C1CCCCN1S(=O)(=O)c1ccccc1 (configuration not stated)	6.6	-4.9	-0.8	-2.9	-2.4	?	1.6
Nc1ncnc2c1ncn2[C@@H]1O[C@H](CO)[C@@H](O)[C@H]1O	.	.	-18.1	5.6	.	6036	.
O=C(Nc1nnc(-c2cccs2)o1)c1ccc(S(=O)(=O)N2CCOCC2)cc1	5.1	0.1	-10.9	-2.7	-0.4	2769	10.7
CC(=O)C1C(c2ccc(Cl)cc2)c2c(n[nH]c2C)CC1(C)O (configuration not stated)	8.1	2.0	-8.0	-4.5	0.2	4696	6.4
COCCNC(=O)Cn1cnc2c(cnn2-c2ccc(OC)cc2)c1=O	8.6	3.1	-48.4	3.3	-2.1	3524	0.4
CCN(CC)CCCn1c2c(c(SCC(=O)Nc3cccc(C)c3C)nc1=O)CCC2	11.4	1.0	-14.4	12.3	5.3	5014	0.6
O=S(=O)(Nc1ccccc1N1CCOCC1)c1ccccc1C(F)(F)F	0.4	-3.1	-18.2	.	3.8	6508	8.2
O=C(CCN1CCN(C(c2ccccc2)c2ccccc2)CC1)N/N=C/c1ccc(O)cc1	.	.	-18.8	-12.9	.	2430	.
O=C(NCCOc1ccccc1)c1cc([N+](=O)[O-])ccc1N1CCOCC1	-11.2	1.1	-5.5	.	-2.7	8860	4.3
Cc1ccccc1NC(=O)CN1CCC(n2nnc3ccccc32)CC1	-6.8	-2.0	-6.2	5.1	3.5	3119	2.2
Nc1ccc(Oc2ccc3c(c2)OCO3)cc1	5.6	-5.0	-27.9	-12.0	12.2	4158	1.0
COCCCn1c(C(=O)NCCC2=CCCCC2)cc2c(=O)n3cccc(C)c3nc21	12.0	6.2	-19.3	-0.6	5.8	4839	15.4
Cc1ccc(C(C)NC(=S)NC2CCCCC2)cc1C (configuration not stated)	.	.	-4.0	1.1	.	6121	.
CCCSC1=C(C#N)C(c2cccs2)C(C(=O)Nc2ccccc2)=C(C)N1 (configuration not stated)	.	.	2.8	0.8	.	2903	.
COC(=O)c1ccc(N2C(=O)C3C4C=CC(CC4)C3C2=O)cc1 (configuration not stated)	1.6	-3.9	-13.1	-3.8	-0.7	3347	0.8
COc1ccccc1N1CCN(C(=O)c2cccc(N3C(=O)NC4CC3(C)Oc3c(OC)cccc34)c2)CC1 (configuration not stated)	2.8	6.2	-7.3	-2.6	4.5	5427	1.7
CNC(=S)N(Cc1ccc(OC)cc1)C1CC(=O)N(c2ccc(OC)cc2)C1=O (configuration not stated)	.	.	4.6	.	-1.3	2104	2.1
CCN(CC)Cc1c[nH]c2ccccc12	.	.	-5.2	.	-4.2	3673	5.7
COC(=O)c1cc(C(=O)OC)cc(N2C(=O)CC(NNC(=O)c3ccc(C)cc3)C2=O)c1 (configuration not stated)	0.3	-0.8	-14.8	-3.5	-0.1	2657	4.3
Cc1[nH]c2c(C)cccc2c1CCNC(=O)c1ccc2c(c1[N+](=O)[O-])C(=O)c1ccccc1C2=O	1.2	3.3	-34.1	-1.2	-3.3	3343	25.7
Fc1ccc(NC(=S)NN=Cc2cccc(Br)c2)c(F)c1	4.5	11.8	.	.	1.5	.	-0.6
CN1CC2C3C(=O)N(C)C(=O)C3[C@](C)(C1=O)N2C(=O)c1ccc(Cl)c(Cl)c1 (some centres not stated)	18.2	5.4	.	.	5.0	.	10.1
CCCCN=C1NC(=Cc2ccco2)C(=O)N1c1ccccc1	8.2	10.9	.	.	1.5	.	4.6
Cc1ccccc1NC(=O)Cc1nc(COC(=O)CNS(=O)(=O)c2cccc(Br)c2)cs1	5.5	-6.1	-5.5	-0.6	2.2	4834	2.5

Screening results deposited in PubChem by several laboratories.
